Compound activity as filed in PubChem BioAssay.
Vif A3G = HIV-1 Vif–A3G interaction blockers – biochemical, TR-FRET, GST-Vif 1-94, biotin-A3G peptide, dose response retest, primary screen (AID 1117319); TR-FRET GST-Vif / biotin-A3G peptide binding; higher % means a stronger effect; test concentration not given here; strong numbers were not always called active; inhibition, %; hits with a dose series show IC50 in µM; 0.57% of 260,000 active;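 active = above the screen mean plus three standard deviations and confirmed in dose response; inconclusive = results disagree or hit not tested in dose response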;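 note: Vif residues 1-94 fused to GST binding biotinylated APOBEC3G peptide 110-148; 0% = full assay without inhibitor and 100% = GST in place of GST-Vif; retest series ran down from 100 µM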
Calb FLC = affects C. albicans growth with fluconazole; C. albicans CaCi-2 (fluconazole-resistant clinical isolate) + fluconazole, Alamar Blue growth, 48 h; growth inhibition, % (test concentration not listed); 0.57% of 300,000 active; AID 1979;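 active = most replicates above 75%; inconclusive = exactly half above 75%; inactive = most below 75%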;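 note: all wells also contain fluconazole at 8 µg/ml as a sub-toxic cotreatment; 0% = median of DMSO wells and 100% = median of geldanamycin control wells; wells of about 8 µL received 7.5 nL stock; the first replicate is given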
LANA-H2A inh = blocks KSHV LANA binding to histone H2A/H2B. Q9QR71. inhibition, % (concentration not given with the values). cell-free LANA-H2A/H2B peptide, fluorescence polarization. 0.6% of 320,000 active; in the data active = inhibition mostly above about 10%, no sharp cut-off; inactive = mostly below about 6.7%;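 note: stock transfer was 7.5 nL into about 10 µL; 0% = median of vehicle wells and 100% = median of positive control wells; one replicate is shown; the record names a cut of 25% in any replicate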
Target sequence (Q9QR71 whole entry, looked up): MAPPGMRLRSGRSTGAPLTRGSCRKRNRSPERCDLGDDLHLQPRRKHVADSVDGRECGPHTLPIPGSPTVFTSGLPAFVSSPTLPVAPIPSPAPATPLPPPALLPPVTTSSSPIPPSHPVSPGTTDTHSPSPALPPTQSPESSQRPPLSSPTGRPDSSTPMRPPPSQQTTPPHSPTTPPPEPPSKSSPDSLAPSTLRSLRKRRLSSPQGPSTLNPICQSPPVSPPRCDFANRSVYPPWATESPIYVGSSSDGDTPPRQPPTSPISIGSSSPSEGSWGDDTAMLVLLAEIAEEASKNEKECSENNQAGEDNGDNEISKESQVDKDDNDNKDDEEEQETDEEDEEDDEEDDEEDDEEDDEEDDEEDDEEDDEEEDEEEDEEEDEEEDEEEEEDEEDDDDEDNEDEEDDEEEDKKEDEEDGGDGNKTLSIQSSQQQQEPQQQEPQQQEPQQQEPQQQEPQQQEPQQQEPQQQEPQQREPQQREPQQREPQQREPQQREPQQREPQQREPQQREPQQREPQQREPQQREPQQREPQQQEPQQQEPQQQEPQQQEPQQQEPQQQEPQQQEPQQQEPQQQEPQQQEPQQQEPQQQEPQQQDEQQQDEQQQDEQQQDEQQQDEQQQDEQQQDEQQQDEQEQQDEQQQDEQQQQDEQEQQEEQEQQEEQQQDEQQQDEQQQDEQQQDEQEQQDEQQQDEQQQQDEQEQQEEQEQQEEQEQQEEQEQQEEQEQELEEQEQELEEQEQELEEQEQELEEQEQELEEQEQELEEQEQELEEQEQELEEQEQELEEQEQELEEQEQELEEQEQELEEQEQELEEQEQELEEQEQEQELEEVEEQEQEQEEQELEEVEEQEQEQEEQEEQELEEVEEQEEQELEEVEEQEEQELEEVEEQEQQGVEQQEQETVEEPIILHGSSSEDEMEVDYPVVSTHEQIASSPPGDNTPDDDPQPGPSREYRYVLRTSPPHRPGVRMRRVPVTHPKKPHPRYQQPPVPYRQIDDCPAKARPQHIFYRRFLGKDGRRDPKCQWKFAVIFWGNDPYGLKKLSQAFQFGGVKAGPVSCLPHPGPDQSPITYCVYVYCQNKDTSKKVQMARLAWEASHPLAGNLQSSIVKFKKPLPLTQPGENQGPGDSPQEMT
HNF4A DNA FP = change in binding of human HNF4 alpha to DNA; P41235; HNF4a-FITC DNA binding, fluorescence polarization, 1 h; activity change, % at 10 µM; 0.3% of 360,000 active; AID 1224865; in the data active = activity change above about 30%, passing the limit was not always enough;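 note: controls were the assay level and a saturating level of protein; the project sought stronger binding though the title names inhibitors; some compounds called inactive have numbers as strong as hits; positive values seem to mean higher polarization but the record does not say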
B2AR ag = agonists of human beta-2 adrenergic receptor inducing internalization | P07550 | Am2.2-beta2AR cells, FAP receptor internalization, flow cytometry; reference of the scale not given here | 0.43% of 340,000 active | response, % (concentration not given with the values) | AID 504454;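 active = response above a set limit, near 3 SD of response in nonfluorescent compounds, cut at about 42% in these data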;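 note: stock transfer was 100 nL into about 11 µL; a reference agonist was the positive control; negative values mostly stem from fluorescent compounds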
RanGTP-Impb inh = disruptors of Ran-importin-beta complex formation – biochemical, FRET, CFP-Ran, YFP-importin-beta, homogeneous, primary screen; AID 2216; 1.1% of 300,000 active; inhibition, % (test concentration not listed); cell-free CFP-Ran/YFP-importin-beta FRET ratio;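 active = most replicates above 15%; inconclusive = exactly half above 15%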;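 note: 0% = DMSO wells and 100% = Ran loaded with GDP instead of GTP; wells of about 40 µL received 100 nL stock; the first replicate is given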
ALR inh = blocks human ALR sulfhydryl oxidase activity. P55789. purified ALR, DTT oxidation, H2O2 HRP-luminol luminescence. inhibition, % (no concentration beside the values). 3.8% of 290,000 active;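 active = mean and each replicate at 75% or more; inconclusive = only one of the two met; inactive = neither met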;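 note: stock transfer was 7.5 nL into about 7.5 µL; 0% = neutral wells and 100% = wells with inactivated enzyme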
Numbers without * were called inactive; ? = inconclusive; . = no result given.

Results follow in this order: Vif A3G | Calb FLC | LANA-H2A inh | HNF4A DNA FP | B2AR ag | RanGTP-Impb inh | ALR inh
1: CCCCCCCCCCS(=O)(=O)N/N=C/c1ccc(O)cc1
 : . | -57 | 0.2 | -1.5 | 25 | -0.4 | 70
2: O=C(Cn1cnc2c(OCc3ccccc3)ncnc21)NCc1ccc2[nH]ccc2c1
 : 3% | . | -1.5 | -3.8 | -2 | . | .
3: Cc1ccc2[nH]c3c(c2c1)CN(C(=O)CN(C)CC1OCCO1)CC3
 : 4% | 15 | -0.6 | -10 | 5 | -27 | -42
4: Cc1ccccc1S(=O)(=O)Nc1nc2ccccc2nc1N1CCc2ccccc2C1
 : . | ? | 5.7 | -1.2 | 1 | -0.7 | -3
5: COc1cccc(-c2nnc(NC(=O)CCS(=O)(=O)c3ccc(C)cc3)o2)c1
 : -3% | -4 | 1.0 | 1.7 | 2 | 3.0 | .
6: Cc1cc(C)n(CCNC(=O)CCc2nnc(CCc3ccccc3)o2)n1
 : ? | -12 | -5.7 | -2.7 | 5 | -3.4 | -3
7: C/C(CC(=O)NC1CCCC1)=N\NC(=O)Cc1csc(N)n1
 : . | -1 | 1.3 | 1.7 | 6 | -5.1 | 0
8: Cc1nc(C)c(N)c(=O)[nH]1
 : 11% | -13 | -2.7 | -1.4 | -7 | -2.4 | 3
9: Brc1cccc(CSc2nnc(-c3ccncc3)o2)c1
 : -11% | 81* | -0.9 | -1.9 | 2 | . | 9
10: CCn1c(SC/C=C/c2ccccc2)nnc1-c1cnccn1
 : 3% | 51 | -2.4 | 0.9 | -8 | ? | 1
11: Cc1scc(C(=O)Nn2cnnc2)c1-c1ccccc1
 : -5% | -10 | 5.6 | 1.5 | -4 | . | -20
12: N/C(=N\S(=O)(=O)c1cc(C(F)(F)F)cc(C(F)(F)F)c1)c1ccncc1
 : 4% | -4 | 1.1 | 1.0 | 2 | -3.1 | -1
13: Cc1ccc(OCC(O)CNC2CCCC2)c(C)c1 (centres undefined)
 : . | -1 | 3.5 | 2.9 | -7 | ? | 32
14: NC(=S)N/N=C/c1ccc(/C=N/NC(N)=S)cc1
 : -5% | -5 | -14 | -1.1 | 2 | 6.8 | -3
15: O=C(N/N=C/C(Cl)=C/c1ccc([N+](=O)[O-])cc1)C(=O)Nc1ccc(C(=O)O)cc1
 : 12% | ? | 0.7 | 2.7 | -4 | 5.7 | 49
16: CCCCCCN(C(=O)CCCCCN1C(=O)NC(c2ccc([N+](=O)[O-])cc2)C(C(=O)OCc2ccccc2)=C1C)C(C(=O)NCCCC)c1ccc(OCC(=O)OC)c(C(=O)OC)c1 (centres undefined)
 : ? | 1 | -1.4 | . | . | -4.6 | .
17: O=C1NC(=O)C(c2ccccc2)(c2ccc(O)cc2)N1 (centres undefined)
 : -7% | . | -4.7 | -1.4 | 5 | . | .
18: CCCCC(C(=O)O)C(C)CC(=O)Nc1nncs1 (centres undefined)
 : -7% | -4 | 2.3 | -4.3 | 0 | 5.0 | 3
19: Cc1cc(-c2nnc(CCC(=O)N(C)C(C)c3cccs3)o2)no1 (centres undefined)
 : 14% | -2 | -3.5 | -0.5 | 2 | -1.2 | 0
20: Cc1ccc(-n2c(C)cc(C)c(C#N)c2=O)cc1
 : 0% | -1 | -7.6 | 0.8 | 3 | 2.8 | -2
21: COCCN1C(=O)C(O)=C(C(=O)c2cccs2)C1c1ccccc1 (centres undefined)
 : -4% | -8 | -2.1 | 1.0 | -5 | 3.3 | .
22: O=C(NCCc1ccccc1)C(=O)NCC(c1ccco1)N1CCOCC1 (centres undefined)
 : 12% | -6 | -2.1 | -0.8 | -6 | 4.4 | -2
23: COc1ccc(-c2csc(NC(=O)Cc3ccccc3F)n2)cc1OC
 : . | 3 | -3.4 | 2.4 | 21 | 6.3 | 0
24: COc1ccc(S(=O)(=O)Oc2ccc3ccccc3c2)cc1
 : -3% | -5 | 0.1 | 3.4 | -6 | 3.8 | -2
25: O=C(NCc1ccccc1Cl)C1CCN(c2cnccn2)CC1
 : -16% | 13 | 1.0 | -1.3 | -6 | 7.7 | .
26: COC(=O)Cn1c(=NC(=O)C2CC2)sc2c(C)cc(C)cc21
 : . | -7 | 5.9 | 3.1 | -4 | -12 | -4
27: CCc1ccc(CN(C)C(=O)CC2C(=O)NCCN2Cc2ccoc2)cc1 (centres undefined)
 : . | 10 | -0.5 | -5.4 | -1 | -3.5 | 0
28: COC(=O)c1sccc1OC(C)C(C)=O (centres undefined)
 : -7% | 6 | 0.9 | -1.8 | -2 | 0.0 | -8
29: O=C(NCc1ccncc1)c1cc(C(=O)C2CC2)c[nH]1
 : . | 1 | -1.8 | 0.4 | 19 | 5.2 | -13
30: COCCn1c(SCC(=O)Nc2ccccc2F)nnc1-c1ccoc1C
 : . | -6 | 2.2 | 4.1 | 5 | 6.3 | -3

The last two entries of the section before are carried over, then new ones follow.
Results follow in this order: Vif A3G | Calb FLC | LANA-H2A inh | HNF4A DNA FP | B2AR ag | RanGTP-Impb inh | ALR inh
29: O=C(NCc1ccncc1)c1cc(C(=O)C2CC2)c[nH]1
 : . | 1 | -1.8 | 0.4 | 19 | 5.2 | -13
30: COCCn1c(SCC(=O)Nc2ccccc2F)nnc1-c1ccoc1C
 : . | -6 | 2.2 | 4.1 | 5 | 6.3 | -3
31: CCOCCCNC(=O)c1ccc(CS(=O)(=O)Cc2ccccc2F)o1
 : 6% | 1 | -1.3 | 1.3 | 0 | ? | -5
32: COC(=O)c1[nH]c2cccc(OC)c2c1NC(=O)CN1CC(C)OC(C)C1 (centres undefined)
 : 0% | -8 | 3.5 | 3.2 | -3 | -0.7 | -14
33: Cc1nn(CC(=O)OCC(=O)Nc2ccccc2[N+](=O)[O-])c(C)c1[N+](=O)[O-]
 : . | 8 | 1.9 | 1.4 | 2 | -2.3 | -2
34: CC1=C(C(=O)OCc2ccc3c(c2)OCO3)C(c2ccccc2OCc2ccccc2)NC(=O)N1 (centres undefined)
 : -3% | -7 | 3.0 | 0.0 | -4 | -0.6 | -18
35: COc1ccc(CNC(=O)CCC(=O)Nc2nnc(C(C)C)s2)cc1
 : 8% | 5 | -3.9 | -0.3 | -2 | -2.5 | .
36: CCOC(=O)C1CCCN(S(=O)(=O)Cc2ccc(Cl)cc2)C1 (centres undefined)
 : . | -6 | -3.8 | 2.2 | -3 | 1.4 | -31
37: O=C(CSc1nnc2ccc(-c3ccc(F)cc3)nn12)NCC1CCCO1 (centres undefined)
 : -5% | 1 | 1.4 | -0.9 | -3 | 3.6 | -4
38: Cc1ccc(-c2csc(NC(=O)c3ccco3)n2)cc1C
 : . | 42 | 5.4 | 0.7 | -2 | 1.1 | 55
39: COc1ccccc1CCNC(=O)CSc1nc(=O)[nH]c2c1CCC2
 : -4% | -3 | 2.1 | 1.8 | 12 | -5.7 | -2
40: CCOc1ccc(NC(=O)c2ccccc2NC(=O)CN2CCN(C(C)=O)CC2)cc1
 : 18% | -2 | 0.4 | -1.3 | -6 | 1.2 | 3
41: CCOCCCNC(=O)C(c1ccc(Cl)cc1)N1CCN(C(=O)c2ccco2)CC1 (centres undefined)
 : ? | 9 | -1.4 | -0.1 | -8 | 3.7 | 0
42: Cc1cc(NS(=O)(=O)c2ccc(NC(=O)Nc3ccc4c(c3)OCO4)cc2)no1
 : 22% | -5 | 2.8 | 0.3 | 18 | 7.7 | .
43: O=C(CCCO)c1ccc2c(c1)OCCO2
 : -1% | 5 | -13 | 1.5 | 4 | -7.3 | 6
44: O=C(NCC1CCCO1)c1ccccc1-c1nc(-c2ccccc2Cl)no1 (centres undefined)
 : -2% | -5 | 0.5 | -1.7 | -3 | ? | 6
45: O=C(Nc1ncn[nH]1)c1cccc(S(=O)(=O)N2CCOCC2)c1
 : . | -5 | 0.4 | -1.5 | 2 | -2.4 | -9
46: CCC(Sc1ccc(C(=O)O)cc1)C(=O)O (centres undefined)
 : 16% | -23 | -4.6 | -0.9 | 7 | -1.6 | -2
47: Cn1nc(C(=O)NCc2ccccc2)c2ccccc2c1=O
 : 0% | 2 | 1.1 | 1.6 | -6 | 0.7 | -1
48: CCNC(=O)NC(=O)C(C)OC(=O)c1ccc(SC)cc1OC (centres undefined)
 : -4% | -4 | -0.9 | -0.8 | -3 | 6.1 | -6
49: O=C(Nc1scc(-c2ccc(F)cc2)c1C(=O)O)c1ccco1
 : 5% | 1 | 2.3 | -1.0 | -2 | -3.3 | 88*
50: O=C(NC1C=CS(=O)(=O)C1)c1ccccc1 (centres undefined)
 : 0% | 13 | 2.2 | 3.0 | 1 | -0.8 | -2
51: COc1ccc(-c2[nH]c(-c3ccc(C)cc3)nc2SCC(=O)NCc2ccco2)cc1OC
 : >100µM* | 2 | -2.1 | -1.7 | 2 | 4.4 | 56
52: CCOC(=O)/C=C/C(=O)OCC(=O)NC(c1ccccc1)c1ccccc1
 : 6% | 5 | -3.2 | 0.4 | 23 | 4.9 | 12
53: NC(=O)CNC(=O)[C@@H]1CC2(CC(c3cccc(Br)c3)=NO2)CN1C(=O)c1ccc(Br)cc1 (some centres undefined)
 : 2% | 12 | -7.2 | 0.8 | -10 | 4.4 | -20
54: O=C(Nc1ccnn1C1CCN(CC(O)CO)CC1)C1CCCC1 (centres undefined)
 : . | 20 | 6.3 | 1.1 | -2 | -3.3 | -24
55: O=C(Nc1ncc(C(F)(F)F)cc1Cl)c1ccc(S(=O)(=O)N2CCOCC2)cc1
 : 6% | 8 | -1.9 | 0.5 | -1 | 1.6 | -34
56: Cc1c(NC(=O)Nc2ccccc2)cccc1[N+](=O)[O-]
 : 22% | 2 | 2.5 | 0.4 | 0 | 0.6 | -23
57: O=C(/C=C/c1ccccc1Cl)Nc1ccc(Cl)cn1
 : 6% | -9 | -1.2 | -0.3 | -3 | ? | 0
58: COc1ccc(N2CCN(C(=O)c3cc4cc(Cl)ccc4[nH]3)CC2)cc1
 : . | -1 | 8.3 | 4.1 | -1 | -4.6 | -18
59: CN(C)S(=O)(=O)c1ccc(NC(=S)NC(=O)c2cccs2)cc1
 : -3% | 15 | 0.3 | 4.6 | -4 | 1.8 | 39
60: CSc1nn(CCc2ccncc2)c(=S)s1
 : 32% | 0 | 4.1 | 4.6 | -15 | 3.2 | -6
61: Cc1cc(C(F)F)n2nc(C(=O)Nc3cccc(C(F)(F)F)c3)nc2n1
 : 3% | -2 | 2.0 | -3.3 | -15 | -2.3 | -1
62: Cc1ccc(NC(=O)CCc2nnc(SCC(=O)Nc3ccccc3C)n2C)cc1Cl
 : -7% | -5 | 5.8 | 2.5 | -2 | -3.5 | -2
63: CCCN(CC(=O)Nc1cc(Cl)ccc1Cl)C(=O)c1ccc(N2CCCC2=O)cc1
 : -7% | . | 1.9 | 1.1 | -17 | . | .
64: CC(=O)Oc1ccc(C(=O)Nc2ccc(C3(C#N)CCCC3)cc2)cc1
 : -6% | -5 | -3.5 | -0.8 | 12 | -3.4 | .
65: COc1ccc(C)cc1NC(=O)CSc1nnc(-c2ccco2)n1N
 : 4% | 21 | -0.3 | -3.6 | 0 | 2.3 | -7
66: COCCN(C(=O)CSc1nc2ccccc2c(=O)n1CC(C)C)c1c(N)n(Cc2ccccc2)c(=O)[nH]c1=O
 : ? | 11 | -7.1 | 5.9 | -12 | 1.6 | -6
67: COc1ccccc1-n1cc2c([N+](=O)[O-])cc([N+](=O)[O-])cc2n1
 : -1% | -6 | 0.9 | -0.5 | 7 | 1.4 | -3
68: CCOc1ccc(OCc2cccc(C(=O)N3CCCC3)c2)cc1
 : 18% | 0 | -1.8 | -3.1 | -10 | 1.7 | -2
69: Cc1onc(-c2ccccc2Cl)c1C(=O)Nc1ccc(N2CCOCC2)cc1
 : ? | -11 | -0.2 | 3.9 | -4 | -0.5 | 66

Compounds were not picked by outcome; 6.3% or so of the library scored in one or more.
